Screening results from PubChem BioAssay.
gsp antagonist: gsp mutant antagonism | 340,000 tested, 0.4% active | Potency, µM (doses to about 76.9 µM), inactives show at the highest dose activity change, negative = inhibition, most hits filed as inhibitors | gsp-mutant cells, cAMP HTRF, 30 min; control for the full effect not named in the record; active = falling curve of any shape with a large fitted effect; inconclusive = falling curve, mostly with a smaller effect; inactive = flat or rising curve; cell line not stated here;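 note: intracellular cAMP measured with PDE inhibitor Ro 20-1724 present during compound exposure; potency is the fitted concentration of half-maximal effect; % is set by controls: 0 for no effect and ±100 for the full control effect; nearly all actives have a fitted effect of over 65% in size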
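G418-selected cells were plated in DMEM/10% FBS for 16-24 h at 37C, then treated with compounds plus the PDE inhibitor […] (300 uM solution added) for 30 min at 37C. Intracellular cAMP was measured by HTRF after 30 min lysis at room temperature.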
Sfp inh: blocks B. subtilis Sfp PPTase activity. Q9F4F7. Biochemical Sfp PPTase activity, qHTS. Potency, µM, without a hit: max response, negative = inhibition, actives largely listed as inhibitors. 310,000 tested, 3.5% active; active = well fitted inhibition curve with a large enough effect; inconclusive = small, poorly fitted or top-dose-only effect, or another doubt; inactive = no such curve, though single readings can be large or run the other way;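 note: the enzyme is Sfp with the accession as filed and its product quenches rhodamine fluorescence; potency is the fitted concentration of half-maximal effect; 0% = enzyme reaction without inhibitor and -100% = no enzyme wells; top concentration of the series not given in the record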
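After 15 min at room temperature with compound, 15 nM Sfp received 5 uM rhodamine-CoA plus 12.5 uM BHQ-2-ybbR (50 mM Hepes pH 7.6, 10 mM MgCl2). Rate came from the fluorescence difference over 30 min, ex 525/em 598 nm.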
gsp agonist: gsp mutant agonism; Potency, µM (highest dose often 76.9 µM), inactives show top-dose activation (cAMP increase), actives largely listed as activators; 340,000 tested, 0.13% active; gsp mutant cells, cAMP HTRF, 30 min; control for the full effect not named in the record; active = well fitted activation curve with a large enough effect; inconclusive = small, poorly fitted or top-dose-only effect, or another doubt; inactive = no such curve, though single readings can be large or run the other way; cell line not stated here;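 note: phosphodiesterase inhibitor Ro 20-1724 added with compounds to block cAMP breakdown; potency is the fitted concentration of half-maximal effect; nearly all actives have a fitted effect of over 60% in size; about a fifth of the inactives were tested at one dose only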
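Cells stably selected in G418 were plated at 2000/well, grown 16-24 hr, then given compounds in DMSO with the PDE inhibitor […] (300 uM solution added) for 30 min at 37C; cAMP was read by HTRF.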
ClpP mod: qHTS Assay for Activators of ClpP; ATP-dependent Clp protease proteolytic subunit (Bacillus subtilis (strain 168)), P80244; purified B. subtilis ClpP, FRET peptide cleavage, 20 min; Potency, µM (series often up to 57.5 µM), inactives show at the highest dose activity change, negative = active; 340,000 tested, 1.9% active; active = well fitted falling curve with a large enough effect; inconclusive = small, poorly fitted or top-dose-only effect; inactive = no such curve, though single readings can be large or run the other way; note: potency is the fitted concentration of half-maximal effect; the source files actives as falling curves though it sought activators and does not explain the sign; nearly all actives have a fitted effect of over 65% in size; many hits overshoot -100%
Target sequence (P80244 whole entry, looked up): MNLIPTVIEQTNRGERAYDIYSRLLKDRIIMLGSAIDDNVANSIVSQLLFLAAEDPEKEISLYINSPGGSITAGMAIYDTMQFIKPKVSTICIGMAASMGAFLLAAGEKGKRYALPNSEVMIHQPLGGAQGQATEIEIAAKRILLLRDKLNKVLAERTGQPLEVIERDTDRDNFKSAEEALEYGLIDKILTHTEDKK
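Purified B. subtilis ClpP, 10 microg/mL final in Tris/HCl pH8 with KCl, BSA, glycerol and Tween-20, cleaved an Abz/nitrotyrosine-quenched decapeptide. Fluorescence (ex 320, em 430) was read at 0 and 20 min at room temperature. Delta was normalized to 5.8 microM ADEP and DMSO/no-enzyme controls.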
CtBP-E1A inh: CtBP/E1A binding inhibition; AlphaScreen GST-E1A/His-CtBP binding, 1536-well; hits give low values; control for the full effect not named in the record; activity change, % (test concentration not listed); 340,000 tested, 0.49% active; AID 651724; in the data active means activity change below about -65%; inconclusive means about -30% to -65%; inactive means above about -30%; note: % is set by controls: 0 for no effect and ±100 for the full control effect; compound concentration not given in the record
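AlphaScreen with 125 nM GST-E1A and 125 nM His-CtBP (5X stocks) in Tris pH 8.0, 300 mM NaCl, BSA, Tween 20, TCEP. Compounds preincubated 2 h at 37 deg C, then glutathione donor/nickel acceptor beads added for 1 h at 37 deg C in dark.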
Menin-MLL FL inh: displaces fluorescein MLL peptide from human menin; Fluorescence polarization, fluorescein-MLL peptide displacement from menin; FP activity change, % at 61.4 µM; 290,000 tested, under 10 active; inconclusive = falling polarisation curve, or a change in total fluorescence; inactive = total fluorescence flat and polarisation flat or rising; no compound was filed as active; the % refers to the polarisation; negative = inhibition;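 note: % of control where 0% means no effect; inhibitors lower the polarisation; unlabelled MLL peptide was the positive control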
TRPV1 potentiator: human TRPV1 potentiation; potentiation, % at 8.33 µM; TRPV1-expressing cells, Fluo-8 calcium influx, capsaicin EC20 potentiation; host cell line not named in the record; control for the full effect not named in the record; AID 540277; Q8NER1; 320,000 tested, 0.02% active; active means potentiation above 80%; inconclusive means 30% to 80%; inactive means below 30%; note: 0% is about no effect
Target sequence (Q8NER1 whole entry, looked up): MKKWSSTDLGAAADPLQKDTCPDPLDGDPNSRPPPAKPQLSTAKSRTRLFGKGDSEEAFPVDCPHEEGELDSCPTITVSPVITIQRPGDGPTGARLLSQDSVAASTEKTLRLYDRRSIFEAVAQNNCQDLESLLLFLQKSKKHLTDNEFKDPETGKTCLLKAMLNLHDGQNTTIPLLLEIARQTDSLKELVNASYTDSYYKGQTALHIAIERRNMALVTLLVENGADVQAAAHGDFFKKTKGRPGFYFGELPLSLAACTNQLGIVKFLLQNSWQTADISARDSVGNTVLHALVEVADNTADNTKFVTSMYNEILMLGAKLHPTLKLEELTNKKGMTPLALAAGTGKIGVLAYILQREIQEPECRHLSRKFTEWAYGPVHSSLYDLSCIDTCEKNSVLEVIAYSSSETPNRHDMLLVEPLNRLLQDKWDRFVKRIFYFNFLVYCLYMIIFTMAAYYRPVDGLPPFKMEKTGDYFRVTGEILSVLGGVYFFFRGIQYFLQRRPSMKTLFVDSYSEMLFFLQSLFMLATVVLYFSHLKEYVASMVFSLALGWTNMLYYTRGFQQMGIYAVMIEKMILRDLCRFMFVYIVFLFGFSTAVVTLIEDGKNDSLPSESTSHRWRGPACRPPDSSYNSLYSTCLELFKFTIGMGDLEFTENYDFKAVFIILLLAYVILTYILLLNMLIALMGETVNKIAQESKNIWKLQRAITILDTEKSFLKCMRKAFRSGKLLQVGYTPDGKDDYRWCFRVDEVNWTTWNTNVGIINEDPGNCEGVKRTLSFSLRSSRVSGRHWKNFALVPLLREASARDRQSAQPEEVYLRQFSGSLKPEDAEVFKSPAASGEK
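TRPV1-expressing cells were cultured overnight at 35.5C and loaded with Fluo-8 calcium dye for 40 to 90 min at room temperature. After a 10 s baseline, compound was added and calcium influx was read kinetically for 3 min (ex 480/em 520 nm).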
Numbers without * were called inactive; ? = inconclusive; . = no result given; [ ] = another dose, or the depositor's remark. No enrichment for hits; 5.3% or so of the library scored in one or more.

SMILES | gsp antagonist | Sfp inh | gsp agonist | ClpP mod | CtBP-E1A inh | Menin-MLL FL inh | TRPV1 potentiator
COc1ccccc1NC(=O)c1ccc(NC(=O)CSc2ncccn2)cc1 | -8.1% | 9.0% | 7.9%[15.4 µM] | . | -7.9 | -2.1 | -5.5
COc1ccc2c(c1OC)C(=O)N(c1ccc(O)cc1)C2=O | . | 6.6% | 16.9%[15.4 µM] | . | -7.7 | 2.5 | -2.7
NC1=NC(=O)/C(=C/c2ccccc2OCC(=O)Nc2ccc(F)cc2)S1 | -6.6% | . | -3.7% | . | 4.0 | . | .
COc1ccc(C(=O)Nc2ccc3c(c2)OCCO3)c(OC)c1 | . | . | 0.6% | -0.1% | 0.1 | . | .
CCOc1ccccc1NC(=O)COC(=O)CNS(=O)(=O)c1ccc(C)cc1 | -6.2% | 5.6% | -8.7%[15.4 µM] | 0.4% | -7.6 | 1.2 | 14.2
CC(C)CC(=O)Nc1c2c(nn1-c1ccc([N+](=O)[O-])cc1)CS(=O)(=O)C2 | -5.1% | 15.9% | -18.2% | . | 3.0 | 4.1 | 24.3
OC(COc1cccc2ccccc12)CN1CCN(c2ccccc2Cl)CC1 (stereo not given) | -4.5% | ? | -40.3%[inhibitor] | -13.0% | . | -3.6 | 6.4
CN1CCN(c2ccc(S(=O)(=O)N3CCCCC3)cc2NC(=O)c2ccc(C#N)cc2)CC1 | 1.0% | -3.9% | -38.4%[inhibitor] | -0.2% | 6.5 | 4.7 | 0.2
CC(CN1CCCC1)OC(=O)c1ccccc1Cl (stereo not given) | 7.0% | 0.4% | 11.4%[15.4 µM] | -3.7% | 2.9 | 0.6 | -13.4
Cc1cc(CNC(=O)C(C)n2cc([N+](=O)[O-])cn2)c2ccccc2n1 (stereo not given) | 9.0% | 14.7% | 6.3%[15.4 µM] | -2.2% | -4.6 | -0.6 | -4.1
COc1ccc(C(=O)NC(=S)NCc2ccc(-c3nc4ccccc4o3)cc2)cc1OC | 10.3% | ? | 20.9% | 4.9% | 1.4 | 7.1 | 7.4
CC(C)(C)Cc1nnc(NS(C)(=O)=O)s1 | 1.3% | . | 42.1% | 0.5% | 6.8 | . | .
O=C(CC1C(=O)NCCN1CCCc1ccccc1)NCCc1ccccc1F (stereo not given) | 16.6% | -3.2% | ? | -11.2% | -4.7 | -3.9 | ?
COc1ccc2c(c1)C(=O)CC(c1ccc(OC)c(OC)c1)O2 (stereo not given) | 2.7% | -1.0% | 2.9% | 0.8% | 11.2 | -0.1 | 0.5
CCc1c(C)sc(NC(=O)OC)c1C(N)=O | -1.9% | 0.3% | 9.1% | -3.9% | 1.7 | 2.2 | 6.7
Cc1ccc(Cn2c(=N)c(S(=O)(=O)c3ccc(C)cc3)cc3c(=O)n4ccccc4nc32)cc1 | 8.0% | 5.5% | 0.3% | -4.1% | . | . | 3.3
CCN1C(=O)CC(Sc2ccccc2N)C1=O (stereo not given) | 0.3% | ? | 1.6% | -5.2% | 0.1 | 0.5 | 0.8
COc1ccccc1CNS(=O)(=O)c1ccc(C)cc1 | -1.0% | 0.2% | -13.1% | -2.5% | -1.2 | 2.7 | -4.4
CCN(C(=O)CSc1nc2n[nH]c(C)c2c(=N)n1-c1ccc(Cl)c(C)c1)c1cccc(C)c1 | -12.8% | 15.6% | -13.6% | ? | . | 0.7 | 1.1
CCc1cc2c(=O)c(-c3nc4ccccc4[nH]3)coc2c(CN2CCCCC2C)c1O (stereo not given) | -13.4% | 1.3% | 25.9% | 0.5% | -6.4 | -1.1 | -16.0
COc1ccc(-n2c(SCC(=O)N3CCCC3)nc3ccccc3c2=O)cc1 | . | 13.2% | . | . | . | 0.1 | -10.7
Cc1nc2sc(C(c3cccs3)N3CCC(C(N)=O)CC3)c(O)n2n1 (stereo not given) | 2.8% | 0.4% | -79.0%[inhibitor] | 0.9% | 1.0 | 4.3 | -3.8
Cc1ccccc1Nc1nc(N)nc(COC(=O)CCNS(=O)(=O)c2ccccc2)n1 | -6.5% | . | -3.4% | 1.3% | 0.0 | . | ?
Cc1cc(C(=O)COC(=O)c2ccccc2NCCO)c(C)n1CC1CCCO1 (stereo not given) | -6.4% | 10.8% | 8.8% | 3.4% | -6.0 | . | 5.1
CCn1c2ccccc2c2nc3cc(C(=O)O)ccc3nc21 | -2.2% | 19.0% | 13.3%[15.4 µM] | . | -24.6 | ? | -2.2

The listing continues:
SMILES | gsp antagonist | Sfp inh | gsp agonist | ClpP mod | CtBP-E1A inh | Menin-MLL FL inh | TRPV1 potentiator
CCN(c1ccc(NC(=O)CCNC(=O)c2ccco2)cc1)C(C)C | -0.3% | -3.9% | -49.8%[inhibitor] | -0.6% | . | 0.4 | -7.0
O=c1[nH]c(=O)n(Cc2ccco2)c2c1C(C(F)(F)F)(C(F)(F)F)N=C(CCC1CCCCC1)N2 | -5.6% | 16.2% | -21.5% | 0.6% | 5.6 | 5.4 | 15.7
CCOC(=O)Cn1nc(C)c(NC(=O)COc2ccc(F)cc2F)c1C | . | 19.7% | . | . | . | -3.5 | 5.4
CC(=O)Nc1cc2c3ccccc3ccc2c2ccccc12 | -2.4% | . | -5.4% | 31.6µM* | 2.9 | . | .
O=C(CNC(=O)c1ccco1)OCc1ccc(Cl)cc1 | -7.0% | -1.5% | 0.8% | 1.1% | -1.5 | 2.7 | -30.3
CCC(C)(C)C(=O)Nc1cccc(Cl)c1C | -2.4% | 16.1% | -24.0% | . | 5.8 | -2.7 | -0.5
O=C(N/C(=C/c1cn(-c2ccccc2)nc1-c1ccccc1)C(=O)N1CCOCC1)c1ccccc1 | . | 8.2% | . | . | . | 0.2 | ?
COc1cc(/C=C/C(=O)OC(C)C(=O)c2ccccc2)cc(OC)c1OC (stereo not given) | -26.3% | . | 1.0% | -5.5% | 5.2 | . | -4.4
CCCCCCCN1N=C(C)C(C(=O)c2ccccc2)C1=O (stereo not given) | -24.4% | 10.4% | 9.7%[15.4 µM] | 0.4% | 9.9 | 0.1 | 10.6
CCCCOCCCn1cnc2c([nH]c3cc(OC)ccc32)c1=O | -1.5% | 5.4% | 3.5% | -1.0% | -1.5 | 0.4 | 2.5
COc1cccc(C(=O)Nc2cccc(OCC(=O)c3ccccc3)c2)c1 | -14.8% | 12.2% | -29.2%[15.4 µM] | . | 10.5 | -2.5 | 11.5
C/C(=C\C(=S)Nc1ccccc1)Nc1ccccc1 | 1.1% | -9.0% | 4.1% | -3.3% | 0.9 | 1.8 | 3.1
O=C(NCCCn1ccnc1)c1ccc(Br)c(S(=O)(=O)N2CCOCC2)c1 | 1.3% | 3.8% | 34.8% | 1.0% | -1.7 | -2.0 | 3.9
CN(Cc1c(O)ccc2c1oc(=O)c1ccccc12)C1CCCCC1 | 2.0% | ? | ? | -10.7% | -2.4 | 0.7 | ?
Nc1cccc(C(=O)OCC(=O)Nc2cccc3c2C(=O)c2ccccc2C3=O)c1 | -4.3% | -11.4% | 17.9% | -2.9% | -3.8 | ? | 4.0
O=[N+]([O-])c1ccc2nc(-c3ccccn3)[nH]c2c1 | 1.4% | ? | ? | . | -90.6* | 0.8 | 0.7
COc1ccccc1N1CCN(C(=O)CCc2nnc3ccc(N4CCOCC4)nn23)CC1 | 7.7% | -2.8% | ? | 0.8% | 2.0 | 0.7 | -9.2
CC(C)c1ccc(-n2c(-c3ccccc3)c[n+]3c2CCc2ccccc2-3)cc1 | . | 10.8% | -5.6%[15.4 µM] | . | -14.4 | -1.3 | -11.2
CCCCN1C(=O)C(CC(=O)NCc2cccs2)CC(C(=O)N2CCOCC2)=C1C (stereo not given) | . | . | -43.6% | -0.9% | 0.6 | . | .
COc1ccccc1Nc1nnc(SCC(=O)Nc2nc(-c3ccc(F)cc3)cs2)s1 | -4.8% | 2.3% | -96.3%[inhibitor] | 0.7% | . | 14.7 | 7.7
O=C(NCC(c1ccco1)N1CCOCC1)c1c(F)cccc1F (stereo not given) | 0.2% | . | -9.0%[15.4 µM] | . | -3.3 | . | 8.4
Cc1onc(-c2ccccc2)c1C(=O)Nc1ccc(N2CCOCC2)cc1 | -2.2% | 5.2% | 1.6% | -0.2% | -1.4 | 3.5 | -3.2
Cc1ccccc1NS(=O)(=O)c1ccc(OCC(=O)N2CCCC2)cc1 | 6.5% | 2.3% | -14.8% | 28.2µM* | 4.2 | 0.9 | -11.1
CCc1nc(N2CCCC2)c(C#N)c2c1CCCC2 | 2.0% | -1.7% | 28.6% | 20µM* | -0.7 | 1.6 | -10.0
Cc1[nH]nc2cn[nH]c12 | 8.0% | -4.3% | -34.8% | 2.2% | 7.4 | 1.3 | 11.3

More entries
SMILES | gsp antagonist | Sfp inh | gsp agonist | ClpP mod | CtBP-E1A inh | Menin-MLL FL inh | TRPV1 potentiator
CC(NC(=O)C(C)(C)C)c1nc2ccccc2n1C (stereo not given) | 4.1% | 10.4% | -6.1% | 0.9% | -12.0 | 0.1 | 0.8
COC(=O)[C@@H](Cc1ccccc1)NS(=O)(=O)N[C@H](Cc1ccccc1)C(=O)OC | 8.6% | . | . | 1.3% | 1.7 | . | .
C=CCSc1nnc2c(n1)OC(c1cccnc1)Nc1ccccc1-2 (stereo not given) | -5.4% | 5.4% | 0.0% | -3.8% | -4.7 | 2.4 | -1.2
CC1CCCC(C)N1C(=O)CSc1nnnn1Cc1ccccc1 (stereo not given) | 13.6% | 8.1% | 9.1% | 0.1% | 5.2 | 0.4 | -12.5
O=C1CCCN1CCCNc1ncnc2sccc12 | 4.9% | 16.6% | 5.9%[15.4 µM] | . | 2.6 | -4.9 | 2.5
CN(C)S(=O)(=O)Nc1ccc(C(=O)O)cc1 | 8.9% | 17.3% | 16.9% | -0.2% | -0.6 | 0.1 | 8.5
Nc1ccc2c(c1)C(=O)c1ccc(Br)cc1-2 | -12.7% | . | 3.6%[15.4 µM] | 0.7% | ? | . | .
COc1ccc2c(c1)c(C(=O)N/N=C/c1ccc(Cl)cc1)c(C)n2C | ? | 0.2% | 6.1% | . | -2.9 | -4.3 | 4.6
COc1ccc(NC(=O)NNC(=O)C(O)(c2ccccc2)c2ccccc2)cc1 | 0.7% | 6.6% | 5.6% | -0.9% | 1.5 | -2.9 | -0.1
CN1CCN(CCCNC(=O)CCCOc2cc(=O)n(C)c3ccccc23)CC1 | 3.2% | 9.4% | ? | -0.5% | 1.1 | -1.5 | 2.8
